# From PubChem
# CSC inhib – blocks cancer stem cells; cancer stem cell-like cells viability, luminescence; inhibition, % at 7.5 µM; actives 1.1% (n = 300,000);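 active = mean at 75% or more and at least half the replicates too; tested in HMLE shEcad cells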;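 also: 0% = median of negative and 100% = median of positive control wells; the first replicate is given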
# Env fusion inh – inhibitors of HIV Env-mediated cell fusion; inhibition, % at 12.3 µM; HeLa-JRFL Env/CEM21 cell fusion, luciferase; AID 651610; actives 1.1% (n = 360,000);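 active = mean replicate inhibition score of at least 50 and every replicate individually at or above 50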;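 also: 0% = plate neutral controls and 100% = maraviroc near 300 nM; one replicate is shown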
# PABP polyA inh – blocks human PABP binding to poly(A) RNA; P11940; fluorescence polarization; inhibition, % at 35 µM; actives 1% (n = 290,000); AID 2014;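 active = 50% or more with normal probe brightness, or confirmed in later tests; about a fifth of its hits are not listed in these tables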;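 also: calls also rest on retests at 20 µM and on dose response follow-up; controls were probe without protein and protein plus probe with vehicle; some compounds called inactive have numbers as strong as hits; many hits fall short of the cut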
# Target sequence (P11940 whole entry, looked up): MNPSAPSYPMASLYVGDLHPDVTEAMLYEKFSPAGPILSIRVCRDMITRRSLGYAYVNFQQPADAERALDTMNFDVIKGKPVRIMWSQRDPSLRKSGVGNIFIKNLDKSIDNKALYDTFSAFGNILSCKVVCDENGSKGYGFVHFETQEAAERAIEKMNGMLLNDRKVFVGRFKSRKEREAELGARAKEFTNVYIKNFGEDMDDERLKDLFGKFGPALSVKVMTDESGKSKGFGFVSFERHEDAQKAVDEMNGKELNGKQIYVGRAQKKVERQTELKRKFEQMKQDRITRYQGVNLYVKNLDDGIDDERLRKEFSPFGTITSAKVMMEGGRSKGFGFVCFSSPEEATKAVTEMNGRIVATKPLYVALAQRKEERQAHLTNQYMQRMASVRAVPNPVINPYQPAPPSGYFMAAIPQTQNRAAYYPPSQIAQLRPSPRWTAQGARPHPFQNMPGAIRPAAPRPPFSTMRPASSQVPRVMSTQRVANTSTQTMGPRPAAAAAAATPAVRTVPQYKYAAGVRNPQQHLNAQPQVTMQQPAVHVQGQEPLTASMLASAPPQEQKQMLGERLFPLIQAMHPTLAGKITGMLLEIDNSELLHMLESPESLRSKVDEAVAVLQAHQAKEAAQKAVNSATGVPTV
# UUG fidelity – alters start codon recognition fidelity in yeast; actives 0.13% (n = 350,000); S. cerevisiae UUG-firefly luciferase reporter, luminescence/redox ratio; activity score, % at 18.7 µM;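 active = replicate mean at a twofold rise or more, about +100% in these data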;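 also: firefly luciferase made from a UUG start codon reports start codon fidelity; reporter light over untreated wells divided by growth signal over untreated wells; some hits fall short of that in this replicate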
# Rce1 inh – inhibitors of yeast Ras-converting enzyme; calls only; actives 0.27% (n = 290,000); Q03530; yeast membranes, quenched prenylated peptide cleavage fluorescence; AID 2563;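 active = fall in fluorescence gain of 50% or more versus controls, with final raw signal at or below 3038400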;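 also: plate controls were neutral control wells for no effect and wells lacking membranes for full effect; tested at 10 µM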
# MT1-MMP act inh – MT1-MMP (human) activation inhibition | P50281 | HT1080 RFP-PRO-GFP cells, GFP/RFP ratio fluorescence, overnight; percent of plate control window, DMSO zero | GFP/RFP ratio change, % at 20 µM | actives 0.061% (n = 360,000) | AID 651647;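 active = GFP/RFP ratio change of at least 30% with cell ATP level not reduced by more than half and red fluorescence within 50% of control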; also: strong numbers were not always called active
#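 Assay system: RFP-PRO-GFP reporter HT1080 cells; read-out basis: GFP/RFP fluorescence ratio; benchmarks: DMSO wells and RFP-L50D-GFP cells; doses: 20 µM single dose, 1% DMSO; schedule: overnight cell settling, then overnight compound exposure, 37 °C, 5% CO2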
# eIF4H FP inh – inhibitors of RNA binding by human eIF4H. inhibition, % at 35 µM. Q15056. actives 0.94% (n = 290,000). eIF4H fluorescence polarization binding assay. AID 2012;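 active = 50% or more with normal probe brightness, or confirmed in later tests; about a fifth of its hits are not listed in these tables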;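 also: calls also rest on retests at 20 µM and on dose response follow-up; 0% = protein and probe with vehicle and 100% = probe without protein; strong numbers were not always called active; many hits fall short of the cut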
# eIF4H FP inh retest – also measured in eIF4H FP inh; calls as there; inhibition, %; compound at 20 µM; confirmation average;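 mean of two retest wells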
# PABP polyA inh retest – second read-out of PABP polyA inh, no call of its own (marks repeat the call); inhibition, %; compound at 20 µM; confirmation repeats;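 mean of two retest wells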
# MT1-MMP act inh RFP – second read-out of MT1-MMP act inh, no call of its own (marks repeat the call); RFP signal change, %; measured here: RFP expression control read;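 0 = vehicle wells; hits needed this value within 50% of zero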
# * = called active by the depositor; i = inactive; x = not tested or not shown; & = joins results of further samples. A portion of the library. The share of hits here may be higher or lower than overall.
SMILES,CSC inhib,Env fusion inh,PABP polyA inh,UUG fidelity,Rce1 inh,MT1-MMP act inh,MT1-MMP act inh RFP,eIF4H FP inh,others
O=C(CC(C(=O)NCc1ccccc1)c1nc2ccccc2c(=O)[nH]1)NCc1ccccc1 (centres undefined),-9.9,11.0,4.1,-8.2,i,-15.8,-4.6,-6.2,
CCC(=O)N1CC(C)C(=O)Nc2ccccc21 (centres undefined),-11.5,x,-3.1,0.0,i,-1.2,-1.3,-1.8,
CCCOC(=O)c1cccc(NC(=O)c2cccnc2)c1,6.6,-11.7,-4.4,-18.6,i,-1.9,1.8,-6.8,
COCC(C)n1c(SCC(=O)NC2CCCCC2)nc2ccccc2c1=O (centres undefined),x,-0.2,x,-2.7,x,0.4,7.5,x,
O=C(CCCC(=O)NNC(=O)Nc1ccccc1)NNC(=O)Nc1ccccc1,2.4,-12.7,-6.8,x,i,-1.9,-1.7,-3.5,
N#Cc1ccc(C(S(=O)(=O)Cc2ccccc2)S(=O)(=O)Cc2ccccc2)cc1,x,11.4,x,0.3,x,4.8,-0.3,x,
O=C(N/N=C/C(Cl)=C/c1ccccc1)c1ccco1,-2.3,-51.1,6.2,-16.8,i,-0.1,0.0,0.7,
O=C(NCC(c1ccco1)N1CCN(c2ccccc2)CC1)C(=O)NC1CC1 (centres undefined),-0.5,14.4,x,-4.2,i,4.1,2.7,x,
COC(=O)c1ccc2nc(-c3ccc(Cl)cc3)c(Cc3cccc(F)c3)n2c1,x,-12.2,x,7.2,x,-13.0,-15.7,x,
Brc1ccc(-n2cnc(-c3ccccc3)c2)cc1,14.7,-177.9,5.4,-23.9,i,1.6,-3.0,10.8,
CCOC(=O)c1c(NS(C)(=O)=O)sc2c1CCC(C)C2 (centres undefined),14.7,x,2.3,8.2,i,-2.9,1.1,8.5,
Cc1ccccc1-n1nc2c(c1NC(=O)c1cccs1)CS(=O)(=O)C2,-20.6,-9.7,x,-8.1,i,0.8,5.2,x,
Cc1ccc(Cl)cc1NC(=O)C(=O)N1CCCCC1,1.1,-11.3,3.0,x,i,-5.4,-1.5,57.8,eIF4H FP inh retest=23.4;PABP polyA inh retest=28.4
CCOC(=O)C[n+]1c(C)ccc2c1CCC2,-5.0,1.7,-1.4,-7.6,x,2.9,5.1,-4.5,
O=C(CCS(=O)(=O)Cc1cccc(Cl)c1)NCCc1ccccc1,9.7,18.4,-1.6,-13.2,i,-2.8,-3.3,-5.5,
CCN(C1=NS(=O)(=O)c2ccccc21)N(CC)S(=O)(=O)c1ccc(C)cc1,8.2,-12.4,-4.9,-5.3,i,-4.4,-3.9,3.0,
O=C(NCC(O)c1ccccc1)c1ccc(Cl)c(S(=O)(=O)N2CCCCC2)c1 (centres undefined),-8.5,33.4,3.6,-6.0,i,-3.7,-27.4,-0.9,
COc1ccc(C(=O)NCCN2CCOCC2)cc1[N+](=O)[O-],-21.1,3.9,0.9,-27.7,i,0.6,0.6,2.4,
COc1ccc(Sc2nc(-c3ccccc3)ncc2OC)cc1,-6.4,-3.2,14.5,x,i,-1.7,0.0,1.3,
Cc1ccc(CNC(=O)C2CC3Cn4c(nc5ccccc54)C3N2C)o1 (centres undefined),-0.7,-10.9,x,-13.8,i,0.0,5.1,x,
O=C(CNC(=O)c1ccccc1F)NCCN1C(=O)S/C(=C\c2ccccc2Cl)C1=O,x,x,-9.1,-8.1,i,-1.4,-1.9,-8.4,
CCOc1cc(OCC)cc(C(=O)NCc2ccco2)c1,-13.7,-2.3,15.9,-22.9,i,2.3,2.6,13.6,
O=c1cc(-c2ccncc2)oc2ccccc12,-5.1,x,-6.7,-14.5,i,-12.7,-6.4,-5.4,
CN(Cc1cccc(F)c1)C(=O)c1ccc2c(=O)n3c(nc2c1)CCC3,-9.0,16.0,2.5,-7.5,i,-1.6,0.4,-3.5,
CC(=O)c1ccc(N2CCN(C(=O)CCC(=O)c3cccs3)CC2)cc1,-13.9,9.4,17.2,-17.5,i,-1.5,-2.1,3.6,
# Continued:
SMILES,CSC inhib,Env fusion inh,PABP polyA inh,UUG fidelity,Rce1 inh,MT1-MMP act inh,MT1-MMP act inh RFP,eIF4H FP inh,others
Cc1ccc(/C=C/C(=O)OC(C)C(=O)Nc2ncc(Cl)cc2Cl)o1 (centres undefined),-3.6,13.4,-4.0,-9.5,i,-6.6,2.8,8.8,
COc1ccc(CCNS(=O)(=O)c2cc3c4c(c2)C(C)C(=O)N4CCC3)cc1OC (centres undefined),-15.1,-0.2,x,-5.3,i,0.7,-2.1,x,
CCc1ccc(NC(=O)C2C3/C=C\CCCCC32)cc1 (centres undefined),8.0,x,-1.2,-11.8,i,4.4,-2.9,3.3,
COc1ccc(-c2csc(NC(=S)NC(=O)c3cccs3)n2)cc1OC,x,11.3,-0.2,x,i,2.4,-2.6,-5.5,
O=C(O)C1CCC(Cn2c(SCc3cc(=O)n4ccccc4n3)nc3ccsc3c2=O)CC1 (centres undefined),-2.8,14.5,3.9,x,i,-5.2,-2.4,-0.3,
Cn1c(=O)cc(OCC(=O)NCCCN2CCN(c3cccc(Cl)c3)CC2)c2ccccc21,6.7,31.6,-22.1,-10.9,i,3.2,0.2,-11.1,
CN(CC(=O)Nc1cccc(F)c1)C(=O)CSc1ccccc1F,x,-0.5,12.0,-3.3,i,0.8,-2.8,9.7,
COc1cccc(NC(=O)C(Sc2nnc(Nc3ccccc3C)s2)c2ccccc2)c1 (centres undefined),39.3,-0.6,-2.8,x,i,4.4,-1.5,-1.6,
O=C(Nc1cccc2ncccc12)c1ccc(Cl)cc1,0.0,-7.9,x,-8.3,i,5.8,0.1,x,
CC1=Nc2ccccc2N=C(N)C1c1ccccc1 (centres undefined),-9.3,-8.7,-9.7,x,i,-6.3,-6.6,3.0,
O=C1CCCN1CCCNS(=O)(=O)c1ccc(Br)cc1,-4.9,-0.5,-12.9,x,i,0.2,0.5,-6.8,
Cc1nn(-c2ccccc2)c2[nH]c(=O)c(CNCCN3CCOCC3)cc12,-17.6,x,7.2,-16.6,i,3.9,1.3,3.7,
O=C(COC(=O)Cc1ccsc1)NCc1ccccc1,-6.8,-13.3,-3.7,x,i,2.5,3.3,-1.7,
S=c1[nH]ncn1/N=C/c1ccccn1,-10.3,-65.7,4.1,-2.5,i,2.5,5.0,7.7,
O=C(Cn1cnc2ccccc21)N/N=C/c1ccccc1,-12.7,12.8,27.3,x,i,3.9,2.4,-2.1,
Cc1ccc(C2C(C#N)=C(N)Oc3n[nH]c(-c4ccccc4)c32)o1 (centres undefined),3.7,x,-4.9,x,i,-4.4,1.2,-5.0,
CN(NS(=O)(=O)c1ccccc1)C(=O)c1ccccc1,x,-10.5,x,-16.1,x,1.2,1.8,x,
C=CCNc1nc(Nc2cc(Cl)ccc2OC)nc(OC)n1,0.5,-17.1,4.6,-4.2,i,-2.5,-1.3,-3.0,
CCCNC(=O)c1ccccc1NC(=O)CSCc1ccc(OC)cc1,10.5,-13.2,10.1,-3.4,i,0.0,-3.9,-2.2,
CCOC(=O)c1[nH]c2c(c1C)C(=O)CC(c1ccc(F)cc1)C2 (centres undefined),59.9,-401.6,-4.4,-11.7,i,6.3,-6.8,7.3,
Cc1noc(NS(=O)(=O)c2ccc(NC(=O)c3ccc(F)cc3)cc2)c1C,-16.1,-9.2,x,-11.2,x,2.3,-1.9,x,
COCCn1c(SCC(=O)NCc2ccc(F)cc2)nc2ccccc21,-8.8,-17.6,-13.0,-18.1,i,-0.1,-0.9,-5.1,
CC(=O)NS(=O)(=O)c1ccc(NC(=O)CSc2ccc(Cl)cc2)cc1,-4.6,14.3,-5.2,x,i,x,x,3.1,
Cc1cccc(C)c1NC(=S)NCCCN1CCCC1=O,-2.3,3.3,-6.0,x,i,-0.9,2.6,-2.6,
Cc1cccc(/N=C2/NC(=O)C(Cc3ccccc3)S2)n1 (centres undefined),-5.2,0.2,-0.5,3.4,i,1.8,-1.8,6.0,

# The final 3 entries of the section before open the next one:
SMILES,CSC inhib,Env fusion inh,PABP polyA inh,UUG fidelity,Rce1 inh,MT1-MMP act inh,MT1-MMP act inh RFP,eIF4H FP inh,others
CC(=O)NS(=O)(=O)c1ccc(NC(=O)CSc2ccc(Cl)cc2)cc1,-4.6,14.3,-5.2,x,i,x,x,3.1,
Cc1cccc(C)c1NC(=S)NCCCN1CCCC1=O,-2.3,3.3,-6.0,x,i,-0.9,2.6,-2.6,
Cc1cccc(/N=C2/NC(=O)C(Cc3ccccc3)S2)n1 (centres undefined),-5.2,0.2,-0.5,3.4,i,1.8,-1.8,6.0,
O=C(NCc1ccccc1)c1sc(=S)n2c1[nH]c(=O)c1ccccc12,-12.7,-216.9,17.0,13.4,i,12.0,3.0,1.9,
Cc1ccc(S(=O)(=O)N2CCOCC2)cc1C(=O)Nc1nc(-c2ccccn2)cs1,27.0,21.0,x,x,x,4.1,-16.1,x,
CCC(=O)[C@@]1(C)[C@H](C)C[C@H]2[C@@H]3CCC4=CC(=O)C=C[C@]4(C)[C@H]3[C@@H](O)C[C@@]21C,-6.1,15.3,x,-13.9,x,-8.9,-10.4,x,
C[C@@H]1CCCCO[C@H](CN(C)C(=O)C2CCCCC2)[C@@H](C)CN([C@H](C)CO)C(=O)c2cc(N(C)C)ccc2O1,x,-75.6,x,1.7&-3.1,x,-0.8,4.2,x,
O=C(CNC(=S)N(Cc1ccccc1)Cc1cccnc1)N1CCOCC1,-0.3,-23.7,9.0,-18.7,i,3.0,3.7,-2.8,
O=S(NCc1ccco1)C12CC3CC(CC(C3)C1)C2 (centres undefined),-1.1,x,11.1,-9.5,i,-4.7,4.2,-0.5,
Cc1ccnc(NC(=O)CCc2c[nH]c3ccccc23)c1,0.3,-28.5,-8.7,-6.6,i,2.4,1.6,0.8,
CCc1ccc(NS(=O)(=O)c2cc(OC)ccc2OC)cc1,27.7,x,-0.5,x,i,5.9,-1.3,-7.1,
COc1ccc(C(=O)NCCCCCC(=O)O)cc1OC,-12.2,-41.0,5.8,-18.2,i,-1.7,0.9,12.1,
CC(C)(C)CC(=O)NCCCN1CCOCC1,12.4,6.9,-20.3,-8.6,i,-0.4,-0.7,8.1,
CC(=O)c1ccc(NC(=O)c2cccc(NC(=O)c3ccccc3)c2)cc1,x,4.5,-17.9,-23.0,i,0.3,-2.7,-0.9,
N#CCCn1cc(/C=N/NC(N)=S)c(-c2ccc(-c3ccccc3)cc2)n1,13.8,7.8,86.2,x,i,4.1,-6.4,1.9*,eIF4H FP inh retest=96.6*;PABP polyA inh retest=38.7
N#C[C@H]1[C@H](c2ccccc2)[C@](C#N)(C(=O)c2ccccc2)[C@@H]2C=Cc3ccccc3N21,x,x,-4.5,x,i,x,x,5.8,
c1ccc(CCCN2CCOCC2)cc1,-6.6,5.2,5.1,-21.8,i,-1.2,-1.1,18.5,
O=C(CCN1C(=O)S/C(=C\c2ccc(F)cc2)C1=O)Nc1ccc(C(=O)O)c(O)c1,-19.2,-9.0,-9.9,-17.1,i,x,x,1.4,
Cc1cs/c(=N\N=C\c2cccc([N+](=O)[O-])c2)n1Cc1ccco1,-2.3,-4.0,9.4,x,i,1.7,-9.9,-5.8,
CC(C)n1c(O)c(N=NC(=O)Cc2csc(N3CCOCC3)n2)c2ccccc21,-12.8,9.9,-3.9,-0.3,x,-0.9,-0.4,4.1,
O=C(NCC(=O)N(CC1CCCO1)C(C(=O)NC1CCCCC1)c1ccc(F)cc1)c1ccco1 (centres undefined),2.7,31.4,9.6,-0.7,i,-2.9,-5.4,-8.5,
O=C(CNS(=O)(=O)N1CCOCC1)N/N=C/c1cccnc1,-7.4,2.1,-6.5,-15.8,i,-2.5,-0.6,-8.8,
Cc1ccc2ccccc2c1C(O)c1ncc(-c2cccc(C(F)(F)F)c2)[nH]1 (centres undefined),x,-0.4,x,-25.1,x,7.8,-0.6,x,
